Measles inh – inhibitors of measles virus growth in cells, primary screen, measles RdRp inhibitor project, cell-based, single point, HTS | infected Vero cells, GFP fluorescence, 64 h; stronger effect = lower value | z-score (concentration not given with the values) | hit rate 0.1% among 33,000;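 active means z-score under -3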;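 further: score is relative to mean and SD of the compound wells of a plate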
The depositor's hits bear a star. A portion of the library, so the mix of outcomes need not match the whole.

COc1ccccc1NC(=O)c1cccc([N+](=O)[O-])c1 was read as Measles inh -0.86.
Screening CCSc1oc(-c2ccco2)nc1S(=O)(=O)c1ccc(Cl)cc1 returned Measles inh 0.99.
`CCc1ccc(NC(=O)C2c3ccccc3C(=O)N(C)C2c2cccs2)cc1` (stereo not drawn) gave Measles inh 1.2.
Screening CN1C(=O)C(=O)c2cc(Br)ccc21 returned Measles inh -0.06.
`Cc1ccccc1C(=O)Nc1c2c(nn1-c1cccc(Cl)c1)CSC2` gave Measles inh -0.87.
Cc1ccc(C(=O)NCc2n[nH]c(=S)n2-c2cccc(C(F)(F)F)c2)cc1C was read as Measles inh -0.6.
O=C(Nc1ccccc1C(F)(F)F)c1coc(=O)c2ccccc12 was read as Measles inh 1.3.
Screening COc1ccc(CNc2ccccc2C(=O)O)cc1 returned Measles inh 0.36.
CCOC(=O)c1cc2c(=O)n3ccccc3nc2n(CCCOC)c1=NC(=O)c1ccco1 was read as Measles inh -0.06.
For CC(=O)C1C(c2cccs2)C(C#N)(C#N)C2c3ccccc3C=CN12 (stereo not drawn) the results were Measles inh 1.5.
For COc1cc(C)nc(Nc2nc(C)c3cc(C)ccc3n2)n1 the results were Measles inh -0.12.
Screening CCOc1ccc(-n2nc(C(=O)NCc3ccco3)c3ccccc3c2=O)cc1 returned Measles inh -0.46.
Cc1ccc(NC(=O)CSc2nnc(CNC(=O)c3ccco3)o2)cc1Cl was read as Measles inh 0.86.
For O=c1oc2cc(OCc3ccc(Br)cc3)c(Cl)cc2c2c1CCC2 the results were Measles inh -0.1.
For Cc1ccc(S(=O)(=O)C2c3ccccc3Oc3ccc(Cl)cc32)cc1 (stereo not drawn) the results were Measles inh -0.14.
For CCCCCCSc1nnc(-c2ccco2)c(-c2ccco2)n1 the results were Measles inh -0.77.
Screening CCOc1ccc(NC(=O)CCN2CCN(S(=O)(=O)c3ccc(F)cc3)CC2)cc1 returned Measles inh -0.76.
`CCOC(=O)CNC(=O)C1=C(C(=O)O)CCCC1` gave Measles inh 0.55.
For COC(=O)c1ccccc1NS(=O)(=O)c1cc(Br)cc2c1N(C(=O)C1CC1)CC2 the results were Measles inh -0.63.
Screening O=C(Nc1cccc(Cl)c1)C(Cc1ccccc1)NS(=O)(=O)c1ccc(Br)s1 (stereo not drawn) returned Measles inh -0.56.
Screening CC(C)(C)c1ccccc1OCC(=O)Nc1cccc2ccccc12 returned Measles inh -0.79.
For COc1ccc(NC(=O)CN(C)S(=O)(=O)c2cccs2)cc1OC the results were Measles inh -0.3.
Cc1ccc(C2CC(C(F)(F)F)n3nc(C(=O)N4CCC(C)CC4)cc3N2)cc1 (stereo not drawn) was read as Measles inh -0.4.
For C=CCn1c(C(C)NC(=O)c2cc(OC)c(OC)c(OC)c2)nc2ccccc21 (stereo not drawn) the results were Measles inh 0.36.
Screening COC(=O)c1ccc(Oc2nc(N3CCOCC3)nc(N3CCOCC3)n2)cc1 returned Measles inh -0.25.
`O=C(Oc1ccc(Br)cc1)c1ccc(N2C(=O)C3CCCCC3C2=O)cc1` (stereo not drawn) gave Measles inh -0.06.
O=C(c1cccn2c(=O)c3sccc3nc12)N1CCN(c2ccccc2)CC1 was read as Measles inh 0.13.
`CCCSc1nc2c([nH]c3ccccc32)c(=O)n1-c1ccccc1` gave Measles inh -0.25.
For O=C(NCc1cccc(Cl)c1)c1ccc2c(=O)n(Cc3cccc(Br)c3)c(=S)[nH]c2c1 the results were Measles inh 1.8.
Screening Cc1cccc(N2CCN(c3ccc(N4C(=O)C5CCCCC5C4=O)cc3[N+](=O)[O-])CC2C)c1 (stereo not drawn) returned Measles inh -1.2.
For COc1ccc(C)cc1NC(=O)c1cc(S(=O)(=O)N2CCCCC2C)ccc1F (stereo not drawn) the results were Measles inh 0.62.
Screening COc1cc(C2Nc3ccccc3NC3=C2C(=O)CC(c2ccccc2)C3)ccc1OCc1ccccc1 (stereo not drawn) returned Measles inh -1.4.
`COC(=O)c1ccc2c(=O)n(CCC3=CCCCC3)c(SCC(=O)N3CCCC3)nc2c1` gave Measles inh 1.6.
For CN1C(=O)c2ccccc2C(C(=O)O)C1c1cccc(Oc2ccccc2)c1 (stereo not drawn) the results were Measles inh -1.
For CC1CCc2sc3ncnc(N4CCN(c5ccccn5)CC4)c3c2C1 (stereo not drawn) the results were Measles inh -0.88.
Screening COCCN1C(=O)c2ccccc2C(C(=O)N(C)C2CCCCC2)C1c1cn(C)c2ccccc12 (stereo not drawn) returned Measles inh 0.66.
Cn1c(=O)c2c(nc(Oc3cccc(C4Nc5ccc6ccccc6c5C5=C4C(=O)CC(C)(C)C5)c3)n2C)n(C)c1=O (stereo not drawn) was read as Measles inh -0.71.
`O=C(c1n[nH]c(=O)c2ccccc12)N1CCCCCC1` gave Measles inh 1.4.
CN(C)CCCN1C(=O)C(=O)/C(=C(/O)c2ccc(F)cc2)C1c1ccccc1F (stereo not drawn) was read as Measles inh 1.5.
`Cc1nn(Cc2ccc(Cl)cc2)c(C)c1NC(=O)c1noc2c1CCCCC2` gave Measles inh 1.2.
`O=C(c1ccc(CNS(=O)(=O)c2ccc(F)cc2)cc1)N1CCC(Cc2ccccc2)CC1` gave Measles inh 1.5.
Screening O=C(O)c1ccc(Oc2ccc(NC(=O)C3CCCCC3)cc2)cc1C(=O)O returned Measles inh -0.06.
For COc1ccc(C2C(=O)N(CCc3ccccc3)CC(=O)N2Cc2ccccc2Cl)cc1 (stereo not drawn) the results were Measles inh -0.95.
`COc1ccc(-c2nnc(-c3ccncc3)o2)cc1OC` gave Measles inh 0.11.
COc1ccc(S(=O)(=O)Nc2cccc(C(=O)O)c2)cc1C(=O)O was read as Measles inh 0.73.
For COC(=O)CSc1nc(-c2ccccc2)c2cc(Cl)ccc2n1 the results were Measles inh -0.54.
Screening CCCOc1ccc(C2C(C(=O)OC)=C(C)N(C)C(C)=C2C(=O)OC)cc1 returned Measles inh -0.61.
`CCC(C)(C(=O)NC1CCCCC1)N(Cc1ccco1)C(C)=O` (stereo not drawn) gave Measles inh -1.2.
`CCOC(=O)c1ccc(Nc2ccc3nonc3c2[N+](=O)[O-])cc1` gave Measles inh 0.2.
CC(NC1CCCCC1O)C(=O)O (stereo not drawn) was read as Measles inh 0.6.

6 structures out of the list, ordered by SMILES length, smallest number first.
CC(NC1CCCCC1O)C(=O)O (stereo not drawn) was read as Measles inh 0.6.
For COC(=O)CSc1nc(-c2ccccc2)c2cc(Cl)ccc2n1 the results were Measles inh -0.54.
`CCC(C)(C(=O)NC1CCCCC1)N(Cc1ccco1)C(C)=O` (stereo not drawn) gave Measles inh -1.2.
COc1ccc(S(=O)(=O)Nc2cccc(C(=O)O)c2)cc1C(=O)O was read as Measles inh 0.73.
Screening O=C(O)c1ccc(Oc2ccc(NC(=O)C3CCCCC3)cc2)cc1C(=O)O returned Measles inh -0.06.
Screening CCCOc1ccc(C2C(C(=O)OC)=C(C)N(C)C(C)=C2C(=O)OC)cc1 returned Measles inh -0.61.

Continuation.
Screening Cc1cc2oc(=O)cc(C)c2cc1NC(=O)c1cccc(Br)c1 returned Measles inh -0.12.
Screening COc1ccc(S(=O)(=O)N2CCN(c3cccc(C)c3C)CC2)cc1OC returned Measles inh -0.15.
CCCCN(C)C(=O)c1sc2ncnc(N3CCC(C)CC3)c2c1C was read as Measles inh -0.31.
CCOc1cc(OCC)cc(C(=O)Nc2ccc(-c3nc4ccccc4s3)c(O)c2)c1 was read as Measles inh 0.26.
COc1ccc(C2C(C(=O)N3CCN(c4ccccc4OC)CC3)c3ccccc3C(=O)N2Cc2ccc(F)cc2)cc1 (stereo not drawn) was read as Measles inh -1.
For Cc1ccc(N=c2oc3ccc(Br)cc3cc2C(=O)Nc2nccs2)c(C)c1 the results were Measles inh -0.4.
Screening COc1ccc(-c2noc(CCC(=O)Nc3cccc(SC)c3)n2)cc1 returned Measles inh -0.9.
Screening Cc1cc(C)nc(NS(=O)(=O)c2ccc(NC(=O)c3ccccc3[N+](=O)[O-])cc2)n1 returned Measles inh -0.08.
For CS(=O)c1nc(-c2ccccc2)cc(C(F)(F)F)n1 (stereo not drawn) the results were Measles inh -0.11.
Screening CC(C)C(=O)NC(c1ccc(N(C)C)cc1)c1c(O)ccc2ccccc12 (stereo not drawn) returned Measles inh -1.5.

Molecules above with a COOH group, in the order listed:
Screening COc1ccc(CNc2ccccc2C(=O)O)cc1 returned Measles inh 0.36.
`CCOC(=O)CNC(=O)C1=C(C(=O)O)CCCC1` gave Measles inh 0.55.
For CN1C(=O)c2ccccc2C(C(=O)O)C1c1cccc(Oc2ccccc2)c1 (stereo not drawn) the results were Measles inh -1.
Screening O=C(O)c1ccc(Oc2ccc(NC(=O)C3CCCCC3)cc2)cc1C(=O)O returned Measles inh -0.06.
COc1ccc(S(=O)(=O)Nc2cccc(C(=O)O)c2)cc1C(=O)O was read as Measles inh 0.73.
CC(NC1CCCCC1O)C(=O)O (stereo not drawn) was read as Measles inh 0.6.

Additional structures.
`CCCSc1nc2sc(C)c(C)c2c(=O)n1-c1ccccc1` gave Measles inh -1.1.
For Cc1cc(C)cc(NC(=O)C2C3C=CC4(O3)C2C(=O)N(CCN2CCCCC2C)C4C(=O)NC2CCCC(C)C2C)c1 (stereo not drawn) the results were Measles inh -0.82.
`CC(C)(C)c1ccc(OCC(=O)Nc2cccc(C(=O)Nc3nccs3)c2)cc1` gave Measles inh -0.28.
`CCOC(=O)C1=C(N)N(c2ccc(Br)cc2)C2=C(C(=O)CC(C)(C)C2)C1c1cc(Br)cs1` (stereo not drawn) gave Measles inh -0.77.
For COc1ccc(NS(=O)(=O)c2ccc3[nH]c(=O)c(=O)[nH]c3c2)cc1OC the results were Measles inh -1.3.
N#Cc1c(NC(=O)COc2ccccc2[N+](=O)[O-])sc2c1CCCC2 was read as Measles inh -0.67.
For CCCNC(=O)c1ccc(CNC(=O)c2ccc(Br)cc2)cc1 the results were Measles inh 2.1.
For Cc1ccc(S(=O)(=O)N(CC(=O)N2CCC(C)CC2)c2cccc(C)c2)cc1 the results were Measles inh 0.12.
Cn1cc(CCCC(=O)NCCc2ccccc2)c2ccccc21 was read as Measles inh 0.64.
For CCOc1c([N+](=O)[O-])c(=O)oc2ccccc12 the results were Measles inh 0.98.
For COc1ccc(Br)cc1CNCc1cccc(OC)c1OC the results were Measles inh -0.97.
Screening O=C(O)CCN1C(=O)C2C3C=CC(C3)C2C1=O (stereo not drawn) returned Measles inh 0.04.
Screening O=C(CSCc1ccccc1Cl)NCCc1ccc(Cl)cc1 returned Measles inh -0.14.
For Cc1ccc(S(=O)(=O)Nc2nc3ccccc3nc2Nc2ccc(C)cc2C)cc1 the results were Measles inh 0.6.
Cc1nc(SCC(=O)c2ccc(F)cc2)c2cc(-c3ccccc3)sc2n1 was read as Measles inh 1.5.
Screening CCCOC(=O)C(CC)Sc1ncnc2sc3c(c12)CCCC3 (stereo not drawn) returned Measles inh 2.1.
Screening COc1ccc(-c2cc(C(=O)NCc3cccnc3)c3cc(C(C)C)ccc3n2)cc1 returned Measles inh 3.2.
`COC(=O)C1=CN(Cc2ccc(OC)c(OC)c2)C=C(C(=O)OC)C1c1ccc2c(c1)OCO2` gave Measles inh -1.6.
`COc1cccc2cc(-c3nc4ccccc4[nH]3)c(=Nc3cccc(C)c3)oc12` gave Measles inh 0.17.
`CC1CCCN(CCCNC(=O)c2cc(Sc3ccc(F)cc3)nc3ccccc23)C1` (stereo not drawn) gave Measles inh -2.1.
`COCCN1C(=O)c2ccccc2C(C(=O)N(C)Cc2ccccc2)C1c1cn(C)c2ccccc12` (stereo not drawn) gave Measles inh 0.51.
Screening CC1=CC(C)(C)N(C(=O)CCN2C(=O)c3ccccc3C2=O)c2ccc(OC(=O)CCN3C(=O)c4ccccc4C3=O)cc21 returned Measles inh 0.38.
For COc1cc(OC)c(Nc2nc(-c3ccc(OC)c(OC)c3)nc3ccccc23)cc1Cl the results were Measles inh -0.62.
`O=c1c2cn[nH]c2nc(SCc2ccccc2Cl)n1-c1ccc(Br)cc1` gave Measles inh -1.3.
CCC(Sc1nc2ccccc2c2nc(C)nn12)C(=O)N1CCOCC1 (stereo not drawn) was read as Measles inh -0.59.
For O=C(Nc1cccc(O)c1)c1cccc(S(=O)(=O)Nc2cccc(O)c2)c1 the results were Measles inh -0.11.
`CCOC(=O)c1cnc2ccccc2c1Nc1ccc(I)cc1` gave Measles inh -0.47.
Screening CCc1ccc(-n2c(=O)c3ccccc3n(CC(=O)C(C)(C)C)c2=O)cc1 returned Measles inh -0.29.
CN(C)C1CCCCC1NS(=O)(=O)c1ccc(Cl)cc1 (stereo not drawn) was read as Measles inh 0.41.
C=CCn1c(SCC(=O)Nc2cc(C(F)(F)F)ccc2Cl)nnc1-c1cccs1 was read as Measles inh -0.49.

Two records picked at random from those above:
CN(C)C1CCCCC1NS(=O)(=O)c1ccc(Cl)cc1 (stereo not drawn) was read as Measles inh 0.41.
`COCCN1C(=O)c2ccccc2C(C(=O)N(C)Cc2ccccc2)C1c1cn(C)c2ccccc12` (stereo not drawn) gave Measles inh 0.51.

(listing goes on)
For O=C(O)C1C2C=CC(C2)C1C(=O)N1CCOCC1 (stereo not drawn) the results were Measles inh 0.22.
For O=C(Nc1cc2c(cc1C(=O)c1ccc(Br)cc1)OCCO2)c1ccc(Cl)cc1 the results were Measles inh -0.19.
For CCC(CC)C(=O)N1c2ccccc2C(C)(c2ccccc2)CC1(C)C (stereo not drawn) the results were Measles inh -0.54.
For N#Cc1c(N)nc(SCC(=O)c2ccc(F)cc2)c(C#N)c1-c1ccc(O)cc1 the results were Measles inh -0.53.
For COc1ccc(NC(=O)C2CC(=O)N(c3ccc(OC(C)C)cc3)C2)cc1 (stereo not drawn) the results were Measles inh -0.58.
`CN(C)CCNC(=O)CCC1=NS(=O)(=O)c2ccccc2N1` gave Measles inh -0.43.
Screening O=S(=O)(c1cccc2nonc12)N1CCCCCC1 returned Measles inh -1.1.
CC(=O)Nc1no[n+]([O-])c1C(N)=O was read as Measles inh 0.76.
Screening COC(=O)c1ccc(OC(=O)CN2C(=O)C(=O)N(C)C2=O)cc1 returned Measles inh 0.37.
For CC(=O)N1c2ccc(S(=O)(=O)N3CCN(c4cc(C)ccc4C)CC3)cc2CC1C (stereo not drawn) the results were Measles inh 0.01.
`CCOc1ccccc1NC(=O)c1c(NCc2sccc2C)sc2c1CCC(C)C2` (stereo not drawn) gave Measles inh 0.01.
CCOC(=O)c1cccc(NCc2ccccc2)c1 was read as Measles inh 0.08.

Assay outcomes (PubChem)
